Source: PubChem
GALR2 agonist = activates the human galanin receptor 2; O43603; GALR2-expressing cells, agonist activation read-out; activation, %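 (tested at 5 µM)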; 0.48% of 140,000 active;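 active means above mean plus 3 SD of all compounds, about 5% in these data, not always enough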;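 further: 0% = vehicle buffer wells and 100% = reference agonist at full effect; tested in CHO reporter cells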
PKD1 inh = PKD1 (human) kinase inhibition; AID 797; Q15139; PKD1 kinase fluorescence polarization assay; inhibition, %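 (about 10 µM by stock and volumes)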; 0.056% of 200,000 active;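 active means inhibition of 50% or more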;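 further: controls were vehicle for no effect and a reference inhibitor for full effect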
Target sequence (Q15139 whole entry, looked up): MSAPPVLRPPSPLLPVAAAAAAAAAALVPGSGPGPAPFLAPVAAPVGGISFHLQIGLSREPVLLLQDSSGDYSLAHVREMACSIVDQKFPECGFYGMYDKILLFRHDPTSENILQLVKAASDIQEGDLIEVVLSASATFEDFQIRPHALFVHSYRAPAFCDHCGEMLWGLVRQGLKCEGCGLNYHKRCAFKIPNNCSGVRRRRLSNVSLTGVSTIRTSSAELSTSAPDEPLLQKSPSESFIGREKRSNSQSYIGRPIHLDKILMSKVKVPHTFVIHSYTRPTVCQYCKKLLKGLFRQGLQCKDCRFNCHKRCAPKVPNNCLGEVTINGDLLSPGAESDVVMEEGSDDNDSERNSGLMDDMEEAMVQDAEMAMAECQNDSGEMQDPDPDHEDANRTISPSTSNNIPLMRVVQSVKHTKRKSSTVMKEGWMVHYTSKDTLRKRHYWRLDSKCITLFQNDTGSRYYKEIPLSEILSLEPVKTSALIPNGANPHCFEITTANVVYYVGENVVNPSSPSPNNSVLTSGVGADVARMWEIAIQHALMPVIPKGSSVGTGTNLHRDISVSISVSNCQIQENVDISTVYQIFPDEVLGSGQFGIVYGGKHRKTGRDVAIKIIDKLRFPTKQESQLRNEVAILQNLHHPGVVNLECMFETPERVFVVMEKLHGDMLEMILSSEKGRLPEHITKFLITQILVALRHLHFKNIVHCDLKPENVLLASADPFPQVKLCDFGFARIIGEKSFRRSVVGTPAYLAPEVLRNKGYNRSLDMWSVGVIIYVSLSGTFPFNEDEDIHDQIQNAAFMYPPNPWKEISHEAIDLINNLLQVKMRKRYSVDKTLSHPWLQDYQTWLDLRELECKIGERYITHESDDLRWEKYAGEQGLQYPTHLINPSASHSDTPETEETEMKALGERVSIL
HSV augment = increases HSV replication in cells; HSV replication augmentation in cells, fold increase; maximum fold increase; 0.005% of 220,000 active; AID 1956;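 active means peak rise of 1.5-fold or more in the series; tested in PC3 cells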;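 further: first round at 10 µM; read as green reporter fluorescence; hits show the peak of a series up to 25 µM; 1 = signal of infected wells without compound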
RGS16-Gao HTS = regulators of human RGS16-Galphao interaction | AID 1441 | 0.38% of 220,000 active | binding response (% of control), % at 10 µM | bead-based flow cytometry RGS16-Galphao binding, fluorescence; actives lie on both sides;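 active means below 25% or above 175%, edge rows of some plates excepted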;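 further: Galphao activated by GDP with aluminum fluoride before binding; 100% = wells without compound and 0% = beads without RGS; some results beyond the cut were filed as inactive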
Insulin prom inh = TRM-6 insulin promoter activity inhibition; TRM-6 cells (human fetal islet line), insulin promoter-eGFP reporter, imaging; reporter expression induced with tamoxifen; inhibition, % at 2 µM; 0.9% of 130,000 active; AID 1273;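 active means inhibition above the mean plus 3 SD, with well images judged a real hit on visual review, cut at about 60% in these data, passing the limit was not always enough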
Insulin prom inh cell count = also measured in Insulin prom inh; calls as there; normalized cell count, %; measured here: cell count, toxicity; reference of the scale not given here;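 cells exposed to compound for 48 h; stained nuclei by imaging scaled within each plate; lower means fewer cells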
HSV augment primary fold = second read-out of HSV augment, no call of its own (marks repeat the call); fold increase; compound at 10 µM; measured here: primary screen fold increase 10 uM; tested in PC3 cells;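 GFP signal in the first replicate; 1 = infected wells without compound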
The depositor's hits bear a star; i = inactive; nt = not tested or not shown; & = joins results of further samples.

SMILES	GALR2 agonist	PKD1 inh	HSV augment	HSV augment primary fold	RGS16-Gao HTS	Insulin prom inh	Insulin prom inh cell count
Cn1nccc1CNC(=O)c1ccnn1C	-2.1	-1	i	0.95	102	-8	127
COc1ccc(-c2nc(C)c(C(C)=O)n2O)cc1OC	-5.5	-1	i	0.92	100	67	112
CCOP(=O)(OCC)C(Nc1ccccc1)c1ccco1 (stereo unspecified)	nt	-13	i	0.98	100	-21	118
Cc1ncccc1C(=O)N1CCCC(CNC(=O)C2(c3ccc(Cl)cc3)CC2)C1 (stereo unspecified)	nt	-4	i	0.99	99	nt	nt
Cc1cc(=O)oc2cc(NC(=O)c3cc4ccccc4o3)ccc12	0.5	4	nt	nt	97	13	116
CCCNc1nc(Cl)nc(NC(C)(C)C)n1	nt	0	i	1.2	96	nt	nt
Cc1cccc(NC(=O)Cn2c(=O)n(Cc3ccco3)c(=N)c3c4c(sc32)COC(C)(C)C4)c1	-0.8	-5	i	0.92	101	nt	nt
CC(=O)NCC(=O)OCN1C(=O)c2ccccc2C1=O	-0.2	-2	i	0.72	100	52	88
COc1cc(/C=C2/NC(=O)NC2=O)cc(Br)c1OCc1ccccc1	nt	9	i	0.84	85	19	118
Cc1cc(C)nc(N(C#N)Cc2cccc(Cl)c2)n1	nt	-1	i	0.71	113	33	123
O=C(N/N=C/c1cc([N+](=O)[O-])ccc1Cl)c1cnccn1	nt	-3	i	0.77	92	nt	nt
COc1ccccc1NC(=O)c1sc2ncn(Cc3cccc4ccccc34)c(=O)c2c1C	0.1	-5	i	1	100	0	123
Cc1snc(SCC(=O)c2ccc([N+](=O)[O-])cc2)c1C#N	nt	-5	i	0.88	75	-20	149
COC(=O)C1=C(N)Oc2cc(C)n(Cc3cccnc3)c(=O)c2C1c1cc(OC)ccc1OC (stereo unspecified)	0.5	-19	i	0.93	102	nt	nt
Cc1nn(CC(=O)Nc2ccc3c(c2)nc(CN2CCCCC2)n3C)c(=O)c2ccccc12	-3.2	5	i	0.85	99	45	93
CCN(CC)C(=O)CSc1nnc(CSc2ncccn2)n1C	nt	nt	i	0.87	118	nt	nt
COC(=O)CCC/C=C1\SC[C@@H](NC(=O)c2ccccc2)C1NC(C)=O (stereo partly specified)	-2.6	4	i	1.1	106	-54	127
N/C(=N\OC(=O)/C=C/c1ccccc1)c1ccccn1	nt	0	i	1	97	nt	nt
CC1CCCN(S(=O)(=O)c2ccc(NC(=O)Cn3nnc(-c4ccccc4F)n3)cc2)C1 (stereo unspecified)	0.2	-6	i	0.8	80	0	95
COc1ccc(N2CCN(S(C)(=O)=O)CC2)cc1	5.0	-4	i	1	100	-35	124
Cc1nc(NC(=O)c2cccc(-c3cc4ccccc4oc3=O)c2)ccc1Br	-0.5	-16	i	0.91	117	nt	nt
CCOc1ccc(CN(C)CC(=O)NCc2ccccc2)cc1	nt	nt	i	0.95	123	nt	nt
CC(=O)c1cccc(OCCN2C(=O)NC(C)(C)C2=O)c1	-1.4	2	i	1.1	98	15	126
CC1CCCC(NC(=S)NC(=O)c2ccccc2Br)C1C (stereo unspecified)	-0.5	-15	i	0.98	136	-26	72
COc1ccccc1C1N(c2ccc(Cl)cc2)C(=O)C2CCCN21 (stereo unspecified)	-0.7	-20	i	0.81	107	13	73

Carrying on.
SMILES	GALR2 agonist	PKD1 inh	HSV augment	HSV augment primary fold	RGS16-Gao HTS	Insulin prom inh	Insulin prom inh cell count
C=C(C)CSc1nc2nc(C)cc(C)n2n1	0.2	-4	i	0.84	114	-224	98
Cc1oc(-c2cccs2)nc1CS(=O)CC(=O)NC1CCCCCC1 (stereo unspecified)	-1.9	1	i	0.9	100	nt	nt
O=C(O)CN1CCCCCC1=O	nt	-4	i	0.99	102	0	82
CCn1c(CCn2ccnc2C)n[nH]c1=S	-3.1	-6	i	0.88	101	23	63
CCc1nc(SCC(=O)Nc2c(C)n(C)n(-c3ccccc3)c2=O)n[nH]1	-0.7	1	i	0.95	98	-71	101
O=C(CSc1nnc(-c2ccncc2)o1)c1ccc2c(c1)OCCO2	nt	-5	i	0.97	101	nt	nt
O=C(COc1ccc(S(=O)(=O)N2CCOCC2)cc1)Nc1ccccc1C(F)(F)F	-2.3	2	i	0.75	100	37	74
Cc1ccsc1C(=O)OCC(=O)NC1CCS(=O)(=O)C1 (stereo unspecified)	nt	0	i	0.99	100	-45	69
O=C(Nc1nc2c(s1)CCCC2)c1cccs1	0.9	3	i	0.94	99	36	142
Cc1cccn2c(=O)c3cc(C(=O)NC4CCCCC4)c(=N)n(CCN4CCOCC4)c3nc12	nt	nt	i	0.98	99	nt	nt
O=C(c1cc(-c2ccccn2)nc2c(Cl)cccc12)N1CCN(C(=O)C2CCCO2)CC1 (stereo unspecified)	-0.4	-7	i	0.94	97	-32	84
O=C(CCNc1ccc(F)cc1)c1ccco1	-2.8	0	i	0.84	104	-54	73
Cc1nc(SCC(N)=O)[nH]c(=O)c1CCC(C)C	-2.9	-1	i	0.75	100	-7	48
O=C(c1ccc(Cl)c(S(=O)(=O)N2CCCC2)c1)N1CCN(c2ccccc2F)CC1	nt	-4	i	1.1	104	nt	nt
Cc1cc(=O)n2[nH]c(-c3cccnc3)nc2n1	-1.8	2	nt	nt	88	nt	nt
CC(C)(C)OC(=O)N1CCC[C@H]1C(=O)N/N=C/c1ccc2ncccc2c1	nt	nt	i	1.1	111	nt	nt
O=C(NCCOC(=O)c1ccc([N+](=O)[O-])cc1)c1cccnc1	nt	-1	i	0.87	105	0	110
Cc1ccc(C(=O)CC(c2cccs2)S(=O)(=O)c2ccc(C)cc2)cc1 (stereo unspecified)	-0.1	0	i	0.96	102	-7	113
COC(=O)c1ccccc1NC(=S)N1CCN(c2ccc(OC)cc2)CC1	nt	-9	i	0.94	104	nt	nt
CSCc1ccc(C(=O)Nc2cccc(C)c2C)cc1	-0.1	3	i	0.9	101	-3	105
Cc1ccc(C(c2sc3nc(C)nn3c2O)N2CC(C)OC(C)C2)cc1 (stereo unspecified)	-1.9	-1	i	0.99	99	52	124
O=C(Nc1nnc(C2=COCCO2)o1)C1CCCCC1	nt	-3	i	0.89	100	nt	nt
CCCCNC(=S)Nc1ccc(C(F)(F)F)cc1	nt	-3	i	0.79	112	-82	146
COc1ccc(-c2cc(=O)c3c(OC)c(OC)c(OC)c(OC)c3o2)cc1OC	0.6	-14	i	0.67	99&100	-43	115
CC(=O)c1nnn(-c2nc(N)nc(N(c3ccccc3)c3ccccc3)n2)c1C	-0.1	-2	i	0.94	100	0	114

Laid out differently: results already given
SMILES,GALR2 agonist,PKD1 inh,HSV augment,HSV augment primary fold,RGS16-Gao HTS,Insulin prom inh,Insulin prom inh cell count
Cc1ccsc1C(=O)OCC(=O)NC1CCS(=O)(=O)C1 (stereo unspecified),nt,0,i,0.99,100,-45,69
O=C(Nc1nc2c(s1)CCCC2)c1cccs1,0.9,3,i,0.94,99,36,142
Cc1cccn2c(=O)c3cc(C(=O)NC4CCCCC4)c(=N)n(CCN4CCOCC4)c3nc12,nt,nt,i,0.98,99,nt,nt
O=C(c1cc(-c2ccccn2)nc2c(Cl)cccc12)N1CCN(C(=O)C2CCCO2)CC1 (stereo unspecified),-0.4,-7,i,0.94,97,-32,84
O=C(CCNc1ccc(F)cc1)c1ccco1,-2.8,0,i,0.84,104,-54,73
Cc1nc(SCC(N)=O)[nH]c(=O)c1CCC(C)C,-2.9,-1,i,0.75,100,-7,48
O=C(c1ccc(Cl)c(S(=O)(=O)N2CCCC2)c1)N1CCN(c2ccccc2F)CC1,nt,-4,i,1.1,104,nt,nt
Cc1cc(=O)n2[nH]c(-c3cccnc3)nc2n1,-1.8,2,nt,nt,88,nt,nt
CC(C)(C)OC(=O)N1CCC[C@H]1C(=O)N/N=C/c1ccc2ncccc2c1,nt,nt,i,1.1,111,nt,nt
O=C(NCCOC(=O)c1ccc([N+](=O)[O-])cc1)c1cccnc1,nt,-1,i,0.87,105,0,110
Cc1ccc(C(=O)CC(c2cccs2)S(=O)(=O)c2ccc(C)cc2)cc1 (stereo unspecified),-0.1,0,i,0.96,102,-7,113
COC(=O)c1ccccc1NC(=S)N1CCN(c2ccc(OC)cc2)CC1,nt,-9,i,0.94,104,nt,nt
CSCc1ccc(C(=O)Nc2cccc(C)c2C)cc1,-0.1,3,i,0.9,101,-3,105
Cc1ccc(C(c2sc3nc(C)nn3c2O)N2CC(C)OC(C)C2)cc1 (stereo unspecified),-1.9,-1,i,0.99,99,52,124
O=C(Nc1nnc(C2=COCCO2)o1)C1CCCCC1,nt,-3,i,0.89,100,nt,nt
CCCCNC(=S)Nc1ccc(C(F)(F)F)cc1,nt,-3,i,0.79,112,-82,146
COc1ccc(-c2cc(=O)c3c(OC)c(OC)c(OC)c(OC)c3o2)cc1OC,0.6,-14,i,0.67,99&100,-43,115
CC(=O)c1nnn(-c2nc(N)nc(N(c3ccccc3)c3ccccc3)n2)c1C,-0.1,-2,i,0.94,100,0,114

The list goes on:
SMILES	GALR2 agonist	PKD1 inh	HSV augment	HSV augment primary fold	RGS16-Gao HTS	Insulin prom inh	Insulin prom inh cell count
N=c1c(S(=O)(=O)c2ccccc2)cc2c(=O)n3ccccc3nc2n1CC1CCCO1 (stereo unspecified)	9.1	-6	i	0.77	100	-36	114
O=C(O)CSc1nnc(COc2ccc([N+](=O)[O-])cc2)n1-c1ccccc1	nt	-5	i	0.97	98	nt	nt
CCn1c(SCC(=O)NC(=O)NC(C)(C)C)nc2ccccc21	nt	0	i	0.94	96	-129	86
O=C(NCC1CCCO1)c1ccc2c(=O)n(CCc3ccccc3)c(=O)[nH]c2c1 (stereo unspecified)	-2.2	-14	i	0.97	97	nt	nt
O=S1(=O)CCC(NS(=O)(=O)c2cccc3cccnc23)C1 (stereo unspecified)	-2.1	-18	i	0.94	102	-8	115
O=C(Oc1ccc2c3c(c(=O)oc2c1)CCC3)c1ccco1	-1.9	1	i	0.7	100	36	74
Cc1ccc(/C(N)=N/OC(=O)c2ccco2)cc1	-2.7	8	i	0.84	109	25	130
Cc1cc(C(F)F)n2ncc(C(=O)O)c2n1	-0.6	-12	i	1.2	96	-11	121
COc1ccc(/C(N)=N/OC(=O)Cc2ccccc2[N+](=O)[O-])cc1	-0.5	-11	i	0.97	98	57	127
O=C(NCc1ccco1)c1ccc(C(=O)NCc2ccco2)s1	-2.0	-9	i	1.1	102	8	51
CC(C)C(=O)Nc1cccc(NC(=O)c2cccc(Br)c2)c1	nt	1	i	1	109	-44	167
Nc1nnc(Cc2ccc(Cl)cc2)s1	-3.1	-6	i	0.95	103	-200	38
Cc1ccc(OCCOC(=O)c2sc(=S)n(C)c2C)cc1	nt	-5	i	1.1	120	-27	77
CCOc1ccccc1NC(=O)COC(=O)c1cc(C(=O)OC)cc([N+](=O)[O-])c1	0.4	6	i	0.9	113	10	142
COc1cc(NC(=O)Cc2ccccc2)ccc1NC(=O)c1ccco1	-1.4	-1	i	0.97	234	nt	nt
Cc1snc(S(=O)(=O)/C(C#N)=N/Nc2cccc(C(F)(F)F)c2)c1C#N	-0.8	1	i	0.95	101	75*	43*
Cc1nn(Cc2ccc(F)cc2)c(Cl)c1/C=N/NC(=O)c1cccnc1	-0.3	-11	i	1	91	-26	137
CC1C(=O)Nc2ccccc2N1C(=O)C1CC1 (stereo unspecified)	-2.7	-2	i	1	100	-42	55
COC(=O)c1cc(Cl)c(NC(=O)/C=C/c2ccc(OC)cc2)cc1OC	-1.5	1	i	0.87	110	-38	142
Cc1cccc(-c2noc(CCCC(=O)Nc3ccc(C(N)=O)cc3)n2)c1	-1.5	0	i	1.1	106	34	40
CCN1/C(=C/C(C)=C/c2sc3ccccc3[n+]2CC)Sc2ccccc21	nt	1	i	1.3	39	i	19
CCOC(=O)c1[nH]c2ccc(Br)cc2c1NC(=O)CCN1CCOCC1	nt	nt	i	1	103	nt	nt
CCc1nc(NCCO)c(C#N)c2c1CCCC2	nt	nt	i	0.96	93	nt	nt
CCOC(=O)CNc1nc(-c2ccncc2)nc2ccccc12	-0.5	2	i	0.82	97	nt	nt
COc1cccc(-n2c(C)c(C(C)=O)c(C(C)=O)c2C)c1	-1.6	-8	i	0.9	103	-14	108

Other entries follow:
SMILES	GALR2 agonist	PKD1 inh	HSV augment	HSV augment primary fold	RGS16-Gao HTS	Insulin prom inh	Insulin prom inh cell count
CNC(=S)NCCCc1ccccc1	nt	-2	i	1	106	nt	nt
O=C(/C=C/N1CCOCC1)c1cc2ccccc2o1	-2.6	0	i	0.83	101	7	122
FC(F)(F)c1cccc(Cc2noc(CN3CCC(c4ccncc4)CC3)n2)c1	nt	-8	i	1	109	nt	nt
c1cncc(Oc2cccc(Oc3cccnc3)c2)c1	-0.9	-3	i	0.89	138	-25	126
O=C(CC(=O)N/N=C/c1ccccc1O)NCc1cccnc1	-0.7	6	i	0.92	95	-14	94
O=C(/C=C/c1ccc2c(c1)OCO2)Nc1c(C(=O)O)[nH]c2ccccc12	-0.3	2	i	1.1	98	nt	nt
